Screens (PubChem)
RE007 growth inh: less growth of the S. pombe RE007 Vpr strain; S. pombe RE007 Vpr strain, BacTiter-Glo ATP luminescence, 24 h; control for the full effect not named in the record; Potency, µM (series often up to 92.2 µM), without a hit: top-dose activity change, negative = less growth; hit rate 0.21% among 360,000; AID 651644; active = well fitted falling curve with a large enough effect; inconclusive = small, poorly fitted or top-dose-only effect; inactive = no such curve, though single readings can be large or run the other way;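 note: % is set by controls: 0 for no effect and ±100 for the full control effect; nearly all actives have a fitted effect of over 50% in size; the assay follows cell death caused by Vpr and the record does not say whether a fall means rescue or toxicity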
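Fission yeast strain RE007, carrying one chromosomally integrated HIV-1 vpr copy, was seeded at OD 0.01 in PMG+AL medium with 23 nL pinned compound. After 24 h at 30 °C and 99% humidity, viability was read by BacTiter-Glo luminescence.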
NS1 function inh: influenza NS1 inhibition; S. cerevisiae slowed by influenza A NS1, growth recovery by OD600; Potency, µM (doses to about 46.1 µM), without a hit: at the top dose activity, positive = more growth; hit rate 0.4% among 270,000; AID 2326; note: actives are rising curves; nearly all actives have a fitted effect of over 50% in size
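OD600 was taken as the measure of yeast growth restored by compound in an NS1-expressing S. cerevisiae strain. Cells had been washed out of glucose medium and diluted 1:100 into galactose -URA medium, pH 6.0.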
Lassa entry inh: blocks Lassa virus binding to or entry into cells; Potency, µM (highest dose often 37.9 µM), without a hit: at the highest dose activity change, negative = inhibition, most hits filed as inhibitors; Lassa virus pseudotype entry inhibition, cell reporter; control for the full effect not named in the record; AID 540256; hit rate 1.2% among 300,000; active means well fitted inhibition curve with a large enough effect; inconclusive means small, poorly fitted or top-dose-only effect, or effect the other way; inactive means flat fitted curve, though single readings scatter; tested in HEK293 cells; note: % is set by controls: 0 for no effect and ±100 for the full control effect; nearly all actives have a fitted effect of over 50% in size; luciferase read-out
StopGo reporter: lowers the luciferase signal of an FMDV 2A StopGo reporter | human cells with a luciferase reporter of 2A StopGo recoding; control for the full effect not named in the record | Potency, µM (highest dose often 57.9 µM), inactives show at the top dose signal change, negative = less light | hit rate 1.2% among 410,000; active = well fitted falling curve with a large enough effect; inconclusive = small, poorly fitted or top-dose-only effect; inactive = no such curve, though single readings can be large or run the other way; tested in HEK293T cells; note: % is set by controls: 0 for no effect and ±100 for the full control effect; nearly all actives have a fitted effect of over 45% in size; luciferase light after 4 h
MARV entry inh: inhibitors of Marburg virus binding or cell entry. Marburg virus pseudotyped entry inhibition, cell reporter; control for the full effect not named in the record; about a third of the inactives were read at about 46 µM. Potency, µM (highest dose often 37.8 µM), inactives show at the highest dose activity change, negative = inhibition, most hits filed as inhibitors. hit rate 1.8% among 300,000; active = well fitted inhibition curve with a large enough effect; inconclusive = small, poorly fitted or top-dose-only effect, or effect the other way; inactive = flat fitted curve, though single readings scatter; tested in HEK293 cells; about a fifth of its hits are not listed in these tables; note: % is set by controls: 0 for no effect and ±100 for the full control effect; luciferase read-out
SARS PLP yeast: blocks SARS-CoV papain-like protease in a yeast assay; Potency, µM (series often up to 32.9 µM), for inactives: at the highest dose activity, positive = growth rescue; AID 485353; S. cerevisiae expressing SARS-CoV PLpro, growth rescue; control for the full effect not named in the record; hit rate 0.19% among 330,000; note: 0% is about no effect; nearly all actives have a fitted effect of over 55% in size; growth read by luminescence after 48 h
Cruzain Triton: cruzain (T. cruzi) inhibition with detergent. P25779. purified cruzain, Z-FR-AMC fluorescence, 0.01% Triton. Potency, µM, inactives show max response, negative = inhibition, hits mostly inhibitors. hit rate 0.43% among 200,000; active = well fitted curve in the direction sought with a large enough effect; inconclusive = small, poorly fitted or top-dose-only effect, or another doubt; inactive = no such curve, though single readings can be large; an effect the other way counts as inactive or inconclusive;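 note: plate controls were neutral wells for no effect and buffer without enzyme for full effect; nearly all actives have a fitted effect of over 40% in size; top concentration of the series not given in the record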
Target sequence (P25779 123-467 limits assumed): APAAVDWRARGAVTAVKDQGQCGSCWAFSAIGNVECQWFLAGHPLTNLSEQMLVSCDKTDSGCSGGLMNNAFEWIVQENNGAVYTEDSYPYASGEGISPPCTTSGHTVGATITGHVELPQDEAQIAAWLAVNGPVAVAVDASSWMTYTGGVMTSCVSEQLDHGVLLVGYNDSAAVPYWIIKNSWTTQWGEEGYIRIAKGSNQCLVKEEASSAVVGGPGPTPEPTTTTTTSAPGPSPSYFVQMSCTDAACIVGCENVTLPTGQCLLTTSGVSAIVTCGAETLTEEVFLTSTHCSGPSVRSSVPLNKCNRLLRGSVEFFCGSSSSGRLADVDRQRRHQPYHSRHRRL
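Cysteine protease activity tested under reducing, mildly acidic conditions (100 mM sodium acetate pH 5.5, 5 mM DTT) plus 0.01% Triton X-100. Cruzain 1.5 nM; substrate Z-FR-AMC 2 uM; 15 min compound preincubation at room temperature.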
Cruzain noTriton: cruzain (T. cruzi) inhibition without detergent | P25779 | purified cruzain, Z-FR-AMC fluorescence, no detergent | Potency, µM, without a hit: max response, negative = inhibition, usual class: inhibitors | hit rate 2.3% among 200,000; active = well fitted curve in the direction sought with a large enough effect; inconclusive = small, poorly fitted or top-dose-only effect, or another doubt; inactive = no such curve, though single readings can be large; an effect the other way counts as inactive or inconclusive;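 note: plate controls were enzyme without inhibitor for no effect and buffer without enzyme for full effect; nearly all actives have a fitted effect of over 40% in size; top concentration of the series not given in the record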
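Purified cruzain at 1.5 nM, pre-incubated 15 min with compound at room temperature in 100 mM sodium acetate pH 5.5, 5 mM DTT, 0.00005% Triton X-100. Reaction started with 2 uM Z-FR-AMC; AMC fluorescence increase over 60 s gives rate.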
An asterisk follows results filed as active; ? = inconclusive; · = no result given; & = joins results of further samples; [ ] = dose if it differs, or a comment. Unless noted, calls come from the whole dose curve; as a rule, active means well fitted rising curve with a large enough effect; inconclusive means small, poorly fitted or top-dose-only effect; inactive means no such curve, though single readings can be large or run the other way. Potency is the fitted concentration of half-maximal effect.

SMILES	RE007 growth inh	NS1 function inh	Lassa entry inh	StopGo reporter	MARV entry inh	SARS PLP yeast	Cruzain Triton	Cruzain noTriton
CCOc1ncccc1C(=O)OCc1cccc([N+](=O)[O-])c1	10%	·	-3%[46.1 µM]	-6%	2%[46.1 µM]	-4%	·	·
CCOc1c2ccc(C(=O)NCc3ccc(OC(F)(F)F)cc3)cc2nn1CC	1%	-14%	·	-2%	·	8%	-7.6%	11%
CC(NC(=O)c1cc2ccccc2oc1=O)c1ccccc1 (stereo unspecified)	-20%	-24%	-10%[46.1 µM]	-2%	?	-11%	·	·
O=C(NC1CC(=O)N(c2ccccc2)C1)c1ccc(S(=O)(=O)N2CCOCC2)cc1 (stereo unspecified)	·	·	17%[46.1 µM]	-16%	·	·	0.4%	4%
CCC1=C2CC[C@H]3C(=O)N(c4ccccc4)C(=O)[C@H]3[C@H]2[C@@]2(C)C(=NCC(=O)OC)OC(=O)N2C1=O	3%	2%	·	-15%	·	-1%	-0.5%	8%
CC(NC(=S)N1CCOCC1)c1ccccc1 (stereo unspecified)	-20%	6%	?	-14%	1%	21%	-0.2%	-7%
CNc1c(N=Cc2cccnc2)c(=O)n(C)c(=O)n1C	?	12%	11%	-18%	-19%	-7%	-1.1%	6%
Nc1c(C(=O)NC2CC2)sc2nc3c(c(-c4ccco4)c12)CC/C3=C/c1ccco1	-14%	?	7%	-20%	4.5µM*	4%	?	?
CCC(=O)c1ccc(OCC(O)CN2CCN(c3cccc(C(F)(F)F)c3)CC2)cc1 (stereo unspecified)	-9%	-39%	?	-28%	?	-2%	1.0%	-6%
CCC(NC(=O)NCCCn1ccnc1)(C(F)(F)F)C(F)(F)F	13%	-3%	8%	0%	-1%	6%	12%	1%
CCOP(=O)(OCC)Oc1cc(C)c(N(C)C)c(C)c1	15%	-7%	?	2%	-6%[46.1 µM]	0%	·	·
COc1ccccc1N1CCN(C(=O)CSc2nc(N)cc(=O)[nH]2)CC1	-6%	10%	-2%	-24%	0%	-1%	2.8%	1%

Two entries from above, comma-delimited.
canonical_smiles,RE007 growth inh,NS1 function inh,Lassa entry inh,StopGo reporter,MARV entry inh,SARS PLP yeast,Cruzain Triton,Cruzain noTriton
CCOP(=O)(OCC)Oc1cc(C)c(N(C)C)c(C)c1,15%,-7%,?,2%,-6%[46.1 µM],0%,·,·
COc1ccccc1N1CCN(C(=O)CSc2nc(N)cc(=O)[nH]2)CC1,-6%,10%,-2%,-24%,0%,-1%,2.8%,1%

Of the compounds above, three contain four or more nitrogen atoms.
SMILES	RE007 growth inh	NS1 function inh	Lassa entry inh	StopGo reporter	MARV entry inh	SARS PLP yeast	Cruzain Triton	Cruzain noTriton
CNc1c(N=Cc2cccnc2)c(=O)n(C)c(=O)n1C	?	12%	11%	-18%	-19%	-7%	-1.1%	6%
CCC(NC(=O)NCCCn1ccnc1)(C(F)(F)F)C(F)(F)F	13%	-3%	8%	0%	-1%	6%	12%	1%
COc1ccccc1N1CCN(C(=O)CSc2nc(N)cc(=O)[nH]2)CC1	-6%	10%	-2%	-24%	0%	-1%	2.8%	1%

(further entries)
SMILES	RE007 growth inh	NS1 function inh	Lassa entry inh	StopGo reporter	MARV entry inh	SARS PLP yeast	Cruzain Triton	Cruzain noTriton
Cc1ccc(NC(=O)CCCn2c(=O)c3cccn3c3ccccc32)c(Cl)c1	·	·	1%[46.1 µM]	-9%	·	·	-1.1%	19%
O=C(O)Cn1c(=O)c2c3c(sc2n(Cc2ccccc2F)c1=O)CCCC3	-22%	3%	-1%	-2%	1%	0%	·	·
COc1ccc(-n2c(=S)[nH]c3sc4c(c3c2=O)CCc2ccccc2-4)cc1	·	20%	-22%	·	-15%	-8%	-8.4%	?
COc1cccc(C(=O)Nc2nnc(-c3cccs3)s2)c1	20%	-11%	?	14%	?	-5%	-2.4%	-25%
O=C(c1ccccc1F)N1CCN(C2CCC(c3ccccc3)CC2)CC1 (stereo unspecified)	-9%	-5%	?	?	-3%	-2%	·	·
COc1ccc(OCc2cc(C(=O)NCC3CCOCC3)no2)c(Cl)c1	2%	-3%	·	27%	·	-8%	·	·
Cc1cc(Oc2ccc3ccccc3c2)nc(SCC(=O)c2ccccc2)n1	·	12%	?	?	?	-10%	-5.4%	-8%
COc1cccc(CNC(=O)c2c(C)nn(-c3cccc(C)c3)c2-n2cccc2)c1	·	·	-5%[46.1 µM]	-21%	·	·	-2.5%	17%
COc1ccccc1CNC(=O)c1nn(-c2ccc(C)cc2)c(=O)c2c1c1ccccc1n2C	9%	17%	?	-29%&14%	?	·	1.2%&1.0%	10%&-19%
CN(N=O)c1ccc(C=C2C=Cc3ccccc32)cc1	-4%	·	?	-1%	0%	·	·	·
Nc1nc(COC(=O)CCC(=O)c2ccccc2)nc(Nc2ccccc2)n1	-12%	·	20%	-6%	6%[46.1 µM]	-2%	·	·
COC(=O)c1ccc(C(=S)N2CCOCC2)cc1	1%	-35%	1%	-6%	1%	3%	2.0%	-5%

Profiles, quoted from the list. Values in the order: RE007 growth inh | NS1 function inh | Lassa entry inh | StopGo reporter | MARV entry inh | SARS PLP yeast | Cruzain Triton | Cruzain noTriton
COc1ccccc1CNC(=O)c1nn(-c2ccc(C)cc2)c(=O)c2c1c1ccccc1n2C is listed with 9% | 17% | ? | -29%&14% | ? | · | 1.2%&1.0% | 10%&-19%
Cc1cc(Oc2ccc3ccccc3c2)nc(SCC(=O)c2ccccc2)n1 is listed with · | 12% | ? | ? | ? | -10% | -5.4% | -8%
O=C(O)Cn1c(=O)c2c3c(sc2n(Cc2ccccc2F)c1=O)CCCC3 is listed with -22% | 3% | -1% | -2% | 1% | 0% | · | ·
Cc1ccc(NC(=O)CCCn2c(=O)c3cccn3c3ccccc32)c(Cl)c1 is listed with · | · | 1%[46.1 µM] | -9% | · | · | -1.1% | 19%
Nc1nc(COC(=O)CCC(=O)c2ccccc2)nc(Nc2ccccc2)n1 is listed with -12% | · | 20% | -6% | 6%[46.1 µM] | -2% | · | ·

Following part.
SMILES	RE007 growth inh	NS1 function inh	Lassa entry inh	StopGo reporter	MARV entry inh	SARS PLP yeast	Cruzain Triton	Cruzain noTriton
CC1Sc2ccc(C(=O)Nc3ccc(S(=O)(=O)N(C)C)cc3)cc2NC1=O (stereo unspecified)	2%	·	?	?	?	2%	·	·
O=C(CSc1ncnc2c1cnn2CCc1ccccc1)Nc1ccc(F)cc1	·	9%	·	·	·	-4%	-0.6%	0%
Cc1ccc(NC(=O)CCc2ccc(S(=O)(=O)N3CCOCC3)cc2)c(C)c1	-4%	-4%	12%	-16%	3%	2%	0.8%	6%
C/C(=N\Nc1ccc(S(=O)(=O)N2CCOCC2)cc1[N+](=O)[O-])C(C)C	1%	·	?	-21%	?	3%	·	·
NC(=O)Cn1cc(C(=O)c2ccccc2)c2ccccc21	-10%	9%	4%[46.1 µM]	-7%	27%[46.1 µM]	8%	·	·
Cc1cccc(-c2nnc(C3CCN(S(=O)(=O)c4cccc(Cl)c4)CC3)o2)c1	·	·	-12%[46.1 µM]	2%	?	·	-20%	1%
S=C1NCCNC(=S)NCCOCCOCCN1	5%	·	-5%	7%	-7%[46.1 µM]	-2%	·	·
CCOC(=O)N1CCN(C(=O)c2ccc(N(Cc3ccc(Cl)cc3)S(C)(=O)=O)cc2)CC1	8%	-21%	·	?	·	4%	·	·
Cn1c(=O)c2c(O)c(Cc3ccccc3)c(=O)n(C)c2n(C)c1=O	7%	4%	11%	7%	10%[46.1 µM]	-3%	·	·
O=c1c2ccccc2n(Cc2cccc(F)c2)c(=O)n1Cc1ccccc1Cl	·	·	2%[46.1 µM]	2%	-7%[46.1 µM]	·	-3.8%	?
Nc1cc(=O)[nH]c(N2CCN(c3ccccc3)CC2)n1	-10%	·	2%	-16%	21%[46.1 µM]	-2%	·	·
COc1ccc(S(=O)(=O)Nc2ccc(Cc3ccncc3)cc2)cc1C	-21%	-17%	·	8%	·	12%	·	·
Cc1ccccc1C(=O)N/N=C1/SCC(=O)N1Cc1ccccc1	1%	0%	-9%	-26%	27%[46.1 µM]	0%	·	·
Cc1cccc2sc(NC(=O)CN(C)S(=O)(=O)c3cccs3)nc12	-21%	-72%	-15%	40µM*	-23%	-23%	-5.9%	-11%
Cc1ccc(CNC(=O)Cc2ccc(-n3c(=O)[nH]c4ccsc4c3=O)cc2)cc1	0%	0%	?	6%	-6%	9%	-0.1%	-3%
Cc1ccnc(NS(=O)(=O)c2ccc(NC(=O)COc3ccccc3)cc2)n1	3%	·	5%	14%	-1%[46.1 µM]	0%	·	·
O=[N+]([O-])c1ccc(N/N=C\c2cccnc2)nc1	-8%	4%	17%	50%[activator]	-8%	1%	·	·
Cc1ccc(S(=O)(=O)N2CCCCC2)cc1C(=O)c1nccn1C	8%	-3%	18%	3%	2%	-4%	-4.3%	0%
Cc1ccccc1-c1noc(-c2ccc(N3CCCCC3)c([N+](=O)[O-])c2)n1	·	·	27%[46.1 µM]	-17%	-10%[46.1 µM]	·	-2.4%	28%
Cc1ccc(NC(=O)Nc2nnc(N(C)Cc3ccccc3)s2)c(C)c1	·	·	6%[46.1 µM]	-26%	-25%[46.1 µM]	·	-8.2%	3%
c1cc(-c2nnc3n2CCC3)[nH]n1	-5%	-2%	4%	·	?	10%	0.6%	0%
CSCC[C@H](NC(=O)[C@@H]1Cc2c([nH]c3ccccc23)C2c3ccccc3C(=O)N21)C(=O)NCC1CCCO1 (stereo partly specified)	8%	-1%	·	-10%	·	2%	·	·
O=C(NCc1ccccc1Cl)c1nnc(CS(=O)(=O)c2ccccc2)o1	-1%	11%	·	-15%	·	2%	·	·
COc1ccccc1NC(=O)C/C(C)=N/NC(=O)C12CC3CC(CC(C3)C1)C2	-18%	·	-6%	2%	35%[46.1 µM]	2%	·	·
Cc1ccc(CSc2nncn3c2cc2sccc23)cc1	·	·	-3%[46.1 µM]	-4%	·	·	-0.7%	6%
CN1C(=O)N(C)C(c2cccc([N+](=O)[O-])c2)C2=C1CCCC2=O (stereo unspecified)	-6%	4%	6%[46.1 µM]	-2%	0%[46.1 µM]	3%	·	·
